From PubChem
VACV Venus inh: qHTS for Stage-Specific Inhibitors of Vaccinia Orthopoxvirus: Venus Reporter Primary qHTS | Vaccinia virus Venus reporter expression, fluorescence | Potency, µM (highest dose often 36.5 µM), without a hit: at the highest dose activity change, negative = inhibition, most hits filed as inhibitors | AID 720580, 2013 | 330,000 compounds, 0.46% hits; active means well fitted inhibition curve with a large enough effect; inconclusive means small, poorly fitted or top-dose-only effect; inactive means no such curve, though single readings can be large or run the other way; tested in A549 cells; further: nearly all actives have a fitted effect of over 30% in size; inactives centre near -10
VACV mCherry inh: qHTS for Stage-Specific Inhibitors of Vaccinia Orthopoxvirus: mCherry Reporter Primary qHTS. Potency, µM (doses to about 36.5 µM), without a hit: at the top dose activity change, negative = inhibition, hits mostly inhibitors. 310,000 compounds, 0.63% hits. Vaccinia virus mCherry reporter infection, fluorescence; about a quarter of the inactives have no number; active = well fitted inhibition curve with a large enough effect; inconclusive = small, poorly fitted or top-dose-only effect; inactive = no such curve, though single readings can be large or run the other way; tested in A549 cells; further: nearly all actives have a fitted effect of over 35% in size; inactives centre near -10
* marks the source's active call; other numbers are inactive results; i = inactive; ? = inconclusive; . = no result given; & = joins results of further samples; [ ] = dose if it differs, or a comment. On the % scale 0 is the no-effect control and ±100 the full control effect; potency means the concentration at half of the fitted maximal effect.

SMILES | VACV Venus inh | VACV mCherry inh
Cc1cccc(N2CCN(C(=O)c3ccc4nccnc4c3)CC2C)c1 (centres undefined) | 0% | ?
CCOC(=O)c1ccc2[nH]c(CSc3nnc(-c4cccc(F)c4)n3C)cc(=O)c2c1 | 4% | 9%
CN(C)C(=S)Nc1ccc(S(=O)(=O)N2CCCCC2)cc1 | -23% | -11%
CCCC[C@@H]1CNC(=S)N1CC1CCCCC1 | -26% | -23%
O=c1[nH]c(CN2CCN(c3ccccc3)CC2)nc2ccccc12 | -12% | .
NS(=O)(=O)c1ccccc1 | 2% | i
CSc1nc(C)c2cc(C)oc2n1 | -29% | .
OCCC1CN(Cc2cccn2-c2cccnc2)CCN1C1CCCCC1 (centres undefined) | -7% | i
CCOC(=O)CC(NC(=O)c1cccs1)c1ccc(OCC)cc1 (centres undefined) | -8% | -6%
COc1ccc(-n2cnnc2SCC(=O)NC2CC2)cc1 | -16% | i
COc1cc(-c2cccs2)cc(=O)c2c(C)oc(C)c12 | 23% | -7%
CCc1nc2c(OCCc3cccc(OC)c3)cccn2c1N(C)C(=O)c1ccc(C)cc1 | ? | -6%
Cc1ccc(S(=O)(=O)Nc2ccc(C(=O)NCCCN3CCOCC3)cc2)cc1[N+](=O)[O-] | -10% | -3%
CCCCCCCCCC(=O)N/N=C(\C)c1cccnc1 | ? | -4%
O=C(Cn1cnnn1)Nc1ccccc1Cc1ccccc1 | -9% | -12%
CCOC(=O)C1CCCN(S(=O)(=O)c2csc(C(N)=O)c2)C1 (centres undefined) | -9% | -9%
C=CCOC1=CS(=O)(=O)N(Cc2ccc(Br)cc2)c2ccc(Br)cc21 | -15% | ?
O=C(C1CC2C=CC1C2)N1CCN(c2ccccc2)CC1 (centres undefined) | -6% | i
Cc1ccc(-c2nnc(Nc3ccc(C(=O)N(C)C)cc3)c3ccccc23)cc1S(=O)(=O)NCC1CCCO1 (centres undefined) | -16% | -15%
S=C(NCCc1ccccc1)N1Cc2cc(Br)ccc2-n2nncc2C1 | 3% | 3%
CC(C)C(NC(=O)c1ccccc1)C(=O)NCC(c1ccccc1)N(C)C (centres undefined) | -28% | i
O=[N+]([O-])c1ccc(OCCN2CCNCC2)cc1 | -3% | i
CC1(C)CC(n2c(=S)[nH]c3ccccc3c2=O)CCO1 (centres undefined) | -9% | i
CCCCN(CCCNC(=O)C1CCN(S(=O)(=O)CC)CC1)c1ccccc1 | -23% | -9%
COc1ccc(Cn2c(SCC(N)=O)nc3c(sc4ccccc43)c2=O)cc1 | -11% | -4%

Given as tab-separated lines: 13 of the compounds above
smiles	VACV Venus inh	VACV mCherry inh
COc1ccc(-n2cnnc2SCC(=O)NC2CC2)cc1	-16%	i
COc1cc(-c2cccs2)cc(=O)c2c(C)oc(C)c12	23%	-7%
CCc1nc2c(OCCc3cccc(OC)c3)cccn2c1N(C)C(=O)c1ccc(C)cc1	?	-6%
Cc1ccc(S(=O)(=O)Nc2ccc(C(=O)NCCCN3CCOCC3)cc2)cc1[N+](=O)[O-]	-10%	-3%
CCCCCCCCCC(=O)N/N=C(\C)c1cccnc1	?	-4%
O=C(Cn1cnnn1)Nc1ccccc1Cc1ccccc1	-9%	-12%
CCOC(=O)C1CCCN(S(=O)(=O)c2csc(C(N)=O)c2)C1 (centres undefined)	-9%	-9%
C=CCOC1=CS(=O)(=O)N(Cc2ccc(Br)cc2)c2ccc(Br)cc21	-15%	?
O=C(C1CC2C=CC1C2)N1CCN(c2ccccc2)CC1 (centres undefined)	-6%	i
Cc1ccc(-c2nnc(Nc3ccc(C(=O)N(C)C)cc3)c3ccccc23)cc1S(=O)(=O)NCC1CCCO1 (centres undefined)	-16%	-15%
S=C(NCCc1ccccc1)N1Cc2cc(Br)ccc2-n2nncc2C1	3%	3%
CC(C)C(NC(=O)c1ccccc1)C(=O)NCC(c1ccccc1)N(C)C (centres undefined)	-28%	i
O=[N+]([O-])c1ccc(OCCN2CCNCC2)cc1	-3%	i

More entries follow:
SMILES | VACV Venus inh | VACV mCherry inh
CSc1ccc(-c2ccc3c(c2)CC(CNC(=O)Cn2nc(C)nc2C)O3)cc1 (centres undefined) | -5% | -14%
C/C(=C\C(=O)c1ccc(C)cc1)NCc1ccc(F)cc1 | -8% | -15%
CC(Sc1nnc(CC(=O)Nc2ccccc2F)n1C)C(=O)Nc1nccs1 (centres undefined) | 8% | -14%
CCN(CC)C(=S)SCc1csc(CC(=O)Nc2ccccc2C)n1 | -14% | -25%
COc1ccc(NC(=O)c2cc(=O)[nH]c3ccccc23)cc1S(=O)(=O)N1CCOCC1 | -14% | i
O/N=C/c1cc(Br)ccc1OCc1ccc(F)cc1 | -26% | ?
COc1cc(OC)c(C(=O)NCc2nc(-c3ccccc3)no2)cc1OC | -3% | i
CSc1ccc(S(=O)(=O)NCCOc2ccccc2C)cc1 | -3% | -9%
CCCC(=O)Nc1sc2c(c1C(=O)Nc1ccccn1)CCCC2 | -28% | -24%
COc1ccc(/C=N/NC(=O)CCCOc2ccc(Cl)cc2Cl)cc1[N+](=O)[O-] | -6% | -16%
CCc1ccccc1NC(=O)NNC(=O)c1ccc2ccccc2c1O | -14% | ?
CC(=O)OC1OCCOC1NC(=S)NCc1ccco1 (centres undefined) | -4% | -2%
Cc1cccc(NC(=O)c2cc(S(=O)(=O)NCc3ccc4c(c3)OCO4)ccc2F)c1C | -2% | -2%
CCOC(=O)N1CCN(C(=O)C(=O)NNC(=O)COc2ccc(Cl)c(C)c2)CC1 | -5% | i
O=C(CN1CCN(c2ccccn2)CC1)Nc1ccccc1C(=O)Nc1ccccc1 | -9% | -7%
CC(C)NS(=O)(=O)c1cc(C(=O)O)ccc1Cl | -13% | i
Cn1c(=O)c2c(nc(SCC(=O)OCc3ccccc3)n2C)n(C)c1=O | 0% | -7%
O=C(CCC(C(=O)c1ccccc1)c1ccccc1)c1ccccc1 (centres undefined) | -18% | i
COc1cc2c(cc1NC(=O)CN1CCN(S(=O)(=O)c3ccc(F)cc3)CC1)oc1ccccc12 | -1% | .
CC(=O)c1sc(NC(=O)CCCOc2ccccc2C)nc1C | -4% | -10%
CCn1ccnc1C(O)c1ccccc1OC (centres undefined) | -17%&-5% | -14%&-6%
COc1ccc(CNCCCSc2nnnn2-c2ccccc2)cc1 | -16% | -18%
COc1cc(C(=O)NCCCN2CCCC2=O)ccc1OCc1ccc(Cl)cc1Cl | -18% | 0%
Cc1c(C)c2ccc(OCC(=O)NC(Cc3ccc(Cl)cc3)C(=O)O)cc2oc1=O (centres undefined) | -2% | -6%
O=C(CN1CCc2ccccc21)NC(c1ccccc1)c1ccccc1 | -7% | -7%

Remaining list, next part.
SMILES | VACV Venus inh | VACV mCherry inh
COc1ccc(N2CCN(C(=O)C3CCCN(S(=O)(=O)c4ccc5c(c4)CCCN5C(C)=O)C3)CC2)cc1 (centres undefined) | ? | ?
C[N+](C)(C)CC(=O)Nc1ccc(Cl)cc1C(=O)c1ccccc1 | -2% | 2%
O=C(OCc1cn(Cc2ccccc2)nn1)c1ccccc1 | -11% | i
COC(=O)C1=C(c2cccc(OCc3ccccc3)c2)C[C@@H]2CC[C@H]1N2C(=O)NCc1ccccc1C(F)(F)F | ? | i
CCCNC(=O)C1(C)CCN(C(=O)c2ccc3ccccc3c2)C1 (centres undefined) | 2% | i
CCN(CC(=O)Nc1ccc2c(c1)OCCO2)C(=O)/C=C/c1cc(Br)ccc1OC | -18% | i
Cc1ccccc1NC(=S)NC(=O)c1cc(-c2ccccc2)nc2ccccc12 | -12% | i
C#CCOCCOCCOCCNc1nc(N2CCN(C(=O)CCCCCCCCCCNC(=O)[C@@H](CCC(=O)O)n3cc(CCCCCN)nn3)CC2)nc(N2CCN(C(=O)CCCCCCCCCCNC(=O)[C@H]([C@@H](C)CC)n3cc(CCCCCN)nn3)CC2)n1 | ? | i
C#CCOCCOCCOCCNc1nc(N2CCN(C(=O)CCCCCCCCCCNC(=O)[C@H](CCCCN)n3cc(C[C@@H](C)CC)nn3)CC2)nc(N2CCN(C(=O)CCCCCCCCCCNC(=O)[C@@H]([C@H](C)O)n3cc(C)nn3)CC2)n1 | 7.9µM* | 11µM*
O=[N+]([O-])c1cccc(S(=O)(=O)[N-]c2nc3ccccc3nc2-n2cc[n+](Cc3ccccc3)c2)c1 | -12% | -10%
CC(=O)Nc1nonc1-c1nnc(SCC(=O)Nc2cc(C)cc(C)c2)n1-c1ccccc1 | ? | ?
CCOCCCNC(=O)CN1C(=O)CSc2cc(S(=O)(=O)N3CCCCCC3)ccc21 | -7% | i
CCCn1nnnc1SCC(=O)Nc1nnc(CC)s1 | -7% | -12%
O=C(O)Cc1ccc(O)c(F)c1 | -18% | -13%
Cc1ccc(-c2nn(-c3ccccc3)cc2/C=N/NC(=O)c2ccncc2)o1 | -8% | i
CCOc1ccccc1OCCCC(=O)Nc1cc(S(=O)(=O)N2CCCCC2)ccc1C | -21% | -24%
C[C@@H]1C=C(C(=O)N2CCOCC2)O[C@H](OCc2ccc(CO)cc2)C1 | 4% | 4%
CCN1CCCC1CNC(=O)C1CCCN(S(=O)(=O)c2cccc3nsnc23)C1 (centres undefined) | -5% | -14%
COc1cc(/C=N/NC(=O)c2cccnc2)ccc1OC(=O)c1cccc(Br)c1 | -6% | -11%
O=c1cc(Cl)c(-c2ccccc2)n[nH]1 | -19% | -27%
C/C(=N\NC(=O)c1cccc(S(=O)(=O)N2CCCC2)c1)c1ccc(OCC(=O)N(C)C)cc1 | -7% | i
Cc1cccc2c1-c1sc(C(=O)N(C)c3cccc(Cl)c3)cc1CO2 | -3% | -11%
O=C(NCC1CCCO1)c1c(O)c2ccccc2[nH]c1=O (centres undefined) | -16% | .
COc1ccc(C(=O)NC(=S)NNC(=O)c2c(-c3ccccc3)noc2C)cc1OC | -5% | -20%
CC(C)NC(=O)c1ccc2c(c1)N(CC(=O)N1CCCCC1)C(=O)C(C)(C)O2 | 2% | ?

Continuation:
SMILES | VACV Venus inh | VACV mCherry inh
O=C(c1nc2ccccn2c1CN1CCC(Cc2ccccc2)CC1)N1CCCC1 | -11% | -21%
COCCCC1CCN(C(=O)C2CCC(=O)N(CCCc3ccccc3)C2)CC1 (centres undefined) | -25% | -27%
COc1ccc2c3c(c(=O)oc2c1OCC(=O)O)CCCC3 | -4% | -16%
Cc1ccc(C(=O)NC(=S)Nc2ccc(NC(=O)c3cccc(Cl)c3)cc2)cc1 | -5% | -10%
CCOc1cc(/C=N/NC(=O)c2ccc(CN3CCOCC3)cc2)ccc1OC | -15% | i
COc1cc(/C=C2/SC(=Nc3ccc(O)cc3)NC2=O)ccc1O | 44%[activator] | 13µM*
Cc1ccc(N=CC2=C(O)CC(c3cccc(Cl)c3)CC2=O)cc1 (centres undefined) | -5% | -12%
Cn1c(=O)c2ncn(CC(=O)N/N=C/C=C/c3ccccc3)c2n(C)c1=O | -7% | i
COC(=O)c1ccc(N2C(=O)C3CC=CC(C)C3C2=O)cc1 (centres undefined) | -5% | -2%
O=C(CSc1nc2ccccc2n1Cc1ccc(F)cc1)N1CCN(c2ccc(F)cc2)CC1 | -8% | -18%
O=C1NC(=O)C(=Cc2ccc(-c3ccc(Cl)cc3)o2)C(=O)N1 | ? | -16%
CCc1ccc([C@@H]2CC=C(C(=O)O)[C@H](c3ccc(C)cc3)N2S(=O)(=O)c2ccc(C)cc2)cc1 | -9% | 9%
Cc1cc(NC(=O)CCl)on1 | 0% | -21%
O=C(CSc1ncn[nH]1)NCc1ccc(Cl)cc1 | -2% | -23%
Cc1nnc(SCC(=O)N(Cc2ccccc2)C(C)(C)C)[nH]c1=O | -6% | -17%
COc1ccccc1/C=C/C(=O)c1ccccc1 | -10% | i
Cc1cc(C)n(-c2nc(C(=O)O)cs2)n1 | -3% | 4%
CN(C)c1ccc(C(c2nnnn2CCOC(=O)Nc2ccc(Cl)cc2)N2CCOCC2)cc1 (centres undefined) | -4% | .
CC(NC(=O)CCCOc1ccc(Cl)cc1)c1ccccc1 (centres undefined) | -17% | -16%
Cc1ccc(NC(=O)/C=C/c2ccc([N+](=O)[O-])s2)cc1 | 20% | -14%
ClCc1nnc(-c2cc3c(s2)CCCC3)o1 | -19% | -18%
Cc1ccc2c(c1)[C@@H]1[C@H](CO2)[C@H](c2ccccc2)[C@]2(C)C(=O)N[C@H](C)C(=O)N12 | -2% | -6%
CN(c1ccccc1)S(=O)(=O)c1ccc(C(=O)NCc2ccccc2F)cc1 | -11% | -22%
Cc1ccc(NC(=O)CN2C(=O)C(c3ccc(F)cc3)=NC23CCCCC3)c(C)c1 | -12% | -16%
Cc1ccc(Sc2ncccc2COC(=O)Nc2c(C)cccc2C)cc1 | ? | .

Additional results follow.
SMILES | VACV Venus inh | VACV mCherry inh
CCNc1nc(NCC)nc(N(CC)C(N)=S)n1 | -13% | i
Cc1ccc(NNC(=S)Nc2ccc(C(C)C)cc2)c(C)c1 | -13% | -13%
CC(O)(COc1ccccc1)c1ccc2c(c1)CN(Cc1cn[nH]c1-c1ccc(F)cc1)CCO2 (centres undefined) | -19% | i
COc1ccc(OC)c(CCNc2nc3cc(OC)c(OC)cc3c3nc(-c4cccnc4)nn23)c1 | -12% | i
OCC(CO)(CO)N=Cc1c(O)ccc2ccccc12 | 5% | -5%
COc1ccc(N2CCN(C(=O)CCc3c(C)nc4cc(-c5ccc(Cl)cc5)nn4c3C)CC2)cc1 | -2% | -5%
COc1ccc2c(=O)cc(C(=O)O)oc2c1 | -12% | -6%
COC(=O)c1cc(Br)c(=O)n(CCc2ccc(F)cc2)c1 | 7% | .
COc1ccc(NC(=O)C2Cc3ccccc3CN2C(=O)c2ccccc2)cn1 (centres undefined) | -15% | -19%
